Screening data as filed in PubChem.
Proteasome disasm: blocks ATP-dependent breakdown of the yeast 26S proteasome. anti-FLAG beads, GFP-proteasome disassembly, flow cytometry. inhibition of disassembly, % (concentration not given with the values). actives 0.2% (n = 24,000);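 active = above 40%; inconclusive = likely self-fluorescent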;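 also: plate controls were ATP control with full disassembly for no effect and ATP-gamma-S intact proteasomes for full effect; higher percent means more bead fluorescence retained so stronger block of disassembly; stock transfer was 100 nL into about 10 µL; wells with too few beads may also be inconclusive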
VCAM-1 up: boosters of cytokine-driven VCAM-1 levels – cell-based, plate reader, pooled HUVEC, TNFa stimulus (AID 455); augmentation, % at 5 µM; actives 0.2% (n = 10,000); HUVEC TNFa-induced VCAM-1 immunofluorescence, plate reader; numbers were filed only for top-ranked candidate wells;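 active = a compound raising TNF-alpha-driven VCAM-1 surface staining, with its hit status upheld on visual or statistical review; inactive = the rest, including hits rejected on review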;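 also: 0% = TNFa with vehicle and 100% = strongest image-checked hit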
* hit, by the source's call; i = inactive; u = inconclusive; x = not tested or not shown. Not all compounds are listed. The share of hits here may be higher or lower than overall.

SMILES	VCAM-1 up	Proteasome disasm
COc1ccc(C2C(C(=O)NCC3CCCO3)CCC(=O)N2c2ccc3c(c2)OCO3)cc1 (stereo unspecified)	x	-0.1
CC(C)(C)n1cnc2cc(NS(=O)(=O)c3ccc(Br)cc3)ccc21	i	-0.1
CCOc1ccc(C2CC(c3ccc(F)cc3)Nc3nc(N)nn32)cc1 (stereo unspecified)	x	-2.8
CCn1c(=O)cc(OCC(=O)Nc2cc(C)ccn2)c2ccccc21	i	-0.6
Cc1ccc2c(c1)CCCN2C(=O)C1CCCO1 (stereo unspecified)	i	-1.3
O=C(Nc1cccc(C(=O)N2CCOCC2)c1)c1cccnc1	i	0.2
COc1cc(NC(=O)c2c(F)cccc2F)nc(OC)n1	x	-1.2
CN1C(=O)NC(c2ccc(O)cc2)C(C(=O)c2cccs2)C1(O)C(F)(F)F (stereo unspecified)	x	-1.4
CC1CCC(NS(=O)(=O)c2ccc3c(c2)n(C)c(=O)c(=O)n3C)CC1 (stereo unspecified)	x	-3.0
COc1cccc(CN2C(=O)C3(C(C#N)=C(N)OC4=C3C(=O)CCC4)c3ccccc32)c1 (stereo unspecified)	i	-0.7
CC(=O)Nc1c(O)nc(SCC(=O)Nc2nnc(CC(C)C)s2)[nH]c1=O	i	-4.4
Cc1ccccc1-c1nc(CS(=O)CC(=O)NCCCN(C)c2ccccc2)c(C)o1 (stereo unspecified)	x	0.8
Cc1ccc2c(c1)N(CC(=O)NC1CCC(C)CC1)C(=O)CO2 (stereo unspecified)	x	-0.5
CCC1CCCCN1CCn1c(=S)[nH]c2cc(OC)c(OC)cc2c1=O (stereo unspecified)	x	-0.8
O=C(CCc1ccc(S(=O)(=O)N2CCOCC2)cc1)NCCc1ccccn1	i	3.6
CCC(CC)C(=O)Nc1cccc(C(=O)NCc2ccco2)c1	i	11.4
CSc1ccccc1NC(=O)c1onc(C)c1Cl	x	-1.7
Cc1ccccc1-c1nc(CN2CCC(C(=O)N3CCN(c4ccccn4)CC3)CC2)c(C)o1	x	17.2
CC(C)C(OC(=O)c1ccco1)C(=O)NCc1ccccc1 (stereo unspecified)	i	-1.1
CC1(C)CC(=O)c2cc(OCC(=O)N3CCN(c4ccccc4F)CC3)ccc2O1	i	-0.8
CCCNC(=O)Cn1cnc2sc(C(=O)N3CCN(CCC)CC3)c(C)c2c1=O	x	-1.0
Cc1c(C(=O)N2CCN(c3ccccc3F)CC2)sc2nc(-c3ccccc3)cn12	x	0.7
CCOc1ccccc1N1C(=O)c2cccnc2C1=O	x	1.1
COC(=O)C1OC2(OC1C(=O)OC)c1ccccc1-c1ccccc12 (stereo unspecified)	x	0.8
Cc1cc(=O)n(CCO)c(O)c1C#N	i	0.4
Cc1ccccc1CS(=O)(=O)Cc1ccc(C(=O)NCCCN2CCOCC2)o1	i	-0.9
COc1cc(OC)nc(NC(=O)CSc2nc3ccccc3o2)n1	i	0.2
COc1ccccc1Cn1nnc2c(=O)[nH]c(C3CCN(C(=O)c4ccccc4Cl)CC3)nc21	i	0.4
COc1cccc(C2=Nn3c(nnc3-c3ccccc3O)SC2)c1	i	-0.1
Cc1[nH]c(=O)[nH]c(=O)c1S(=O)(=O)N1CCCC(C(=O)NCCc2ccc(Cl)cc2)C1 (stereo unspecified)	x	-2.5
Cc1ccc(S(=O)(=O)NC(CC(=O)NC2CCCC2)c2ccco2)cc1 (stereo unspecified)	x	-1.7
O=C(NC1(C(F)(F)F)NC(=O)N(Cc2ccco2)C1=O)c1cccnc1 (stereo unspecified)	i	1.9
COc1ccc(/C(O)=C2/C(=O)C(=O)N(CCN(C)C)C2c2ccccn2)cc1OC (stereo unspecified)	i	-3.5
CC(CCC(=O)Nc1nncs1)C(=O)O (stereo unspecified)	i	-0.2
COCCn1c(=O)[nH]c2cc(C(=O)N3CCN(c4ccccc4OC)CC3)ccc2c1=O	i	-0.7
CC1(C)CC(=O)C2=C(C1)Nc1ccccc1NC2c1nc2ccccc2[nH]1 (stereo unspecified)	x	-0.9

Some of these compounds in order of their number in Proteasome disasm, descending.
molecule	Proteasome disasm
COc1cccc(C2=Nn3c(nnc3-c3ccccc3O)SC2)c1	-0.1
Cc1ccccc1CS(=O)(=O)Cc1ccc(C(=O)NCCCN2CCOCC2)o1	-0.9
COc1ccc(/C(O)=C2/C(=O)C(=O)N(CCN(C)C)C2c2ccccn2)cc1OC (stereo unspecified)	-3.5

New compounds follow:
SMILES	VCAM-1 up	Proteasome disasm
CCOc1ccc(CNC(=O)C(CC)n2nc(C)n3c(cc4occc43)c2=O)cc1OC (stereo unspecified)	x	1.7
Cc1cc(C)c2c(n1)nn1c(NCCCN3CCOCC3)cc(C)nc21	i	1.7
Cc1cc(C(=O)NC(C)C)on1	x	1.4
NC1=CC(=O)c2cccc3cccc1c23	x	6.1
COc1cccc(NS(=O)(=O)c2cc(C)sc2C)c1	i	0.8
COc1cccc(OC)c1C(=O)Nc1ccc(CN2CCCCC2)cc1	i	-2.6
CCOC(=O)c1c(C)c(C(=O)NCc2cccs2)c(C)n1CC	x	0.6
C(=N\n1cnnc1)/c1cccnc1	i	-0.3
COC(=O)c1cc(OC)c(OCc2cc(C(=O)OC)oc2C)c(OC)c1	i	-0.5
Cc1noc(N)c1C(=O)Nc1ccc(F)c(Cl)c1	x	6.8
Cc1cc(C)c(C#N)c(SCc2[nH]nc3c2C(c2ccccc2)C(C#N)=C(N)O3)n1 (stereo unspecified)	i	2.6
CCCc1c(OCCCCc2nn[nH]n2)ccc(C(C)=O)c1O	i	0.1
O=C(CSc1nnc(-c2ccccc2Cl)o1)N1CCCCC1	x	0.4
CC(C)CCNC(=O)CCS(=O)(=O)c1cccc2nonc12	x	0.0
O=C(COc1ccc(Cl)cc1)NCc1nnc(SCC(=O)NC2CCCC2)o1	x	2.5
C#CCSc1nnc(-c2ccccc2)c(=O)[nH]1	i	-0.3
Cc1cccc(NC(=O)CCn2ccnc2C)c1	i	0.0
CCOC(=O)Cc1csc(NC(=O)CN2C(=O)c3ccccc3S2(=O)=O)n1	x	-1.1
CCOC(=O)CNC(=O)Cn1cnc2ccc(S(=O)(=O)N3CCC(C)CC3)cc2c1=O	x	-0.2
COC(=O)Nc1nc2ccc(C(=O)c3ccccc3)cc2[nH]1	i	-0.3
Cc1ccsc1C1CC(=O)NC2=C1C(=O)CC(C)(C)C2 (stereo unspecified)	x	-0.8
Cc1ccc(S(=O)(=O)Cc2ccc(C(=O)N3CCN(c4ccc(F)cc4)CC3)o2)cc1	x	1.1
Cc1ccc(NC(=O)Cn2cnc3c(cnn3C(C)(C)C)c2=O)cc1	x	-0.2
Cc1ccccc1CSc1nnc(Cn2c(=O)sc3ccccc32)n1C	x	0.6
CCOC(=O)CSc1nc2c(sc(=S)n2Cc2ccco2)c(=O)n1-c1ccccc1	x	-2.4
CCOC(=O)Nc1nnc(-c2ccccc2OC)s1	i	0.2
COc1ccc(C(=O)Nc2nc(C)c(C(=O)N(C)C)s2)cc1OC	i	-1.6
CSC1=NCCN1C(=O)c1c(F)cccc1Cl	x	0.4
O=C(c1coc(=O)c2ccccc12)N1CCN(Cc2ccccc2)CC1	x	-0.7
O=C(C1CC1c1ccccc1)N1CCN(c2cccc(Cl)c2)CC1 (stereo unspecified)	x	0.2
Cc1cnc(C(=O)Nc2ccc(N3CCN(C(=O)OC(C)(C)C)CC3)cc2)cn1	i	-3.0
O=C1CC(c2cccc(F)c2)C2=C(CCCC2=O)N1 (stereo unspecified)	x	-0.4
CCOC(=O)Cn1c(=N)n(CCOc2cccc(C)c2)c2ccccc21	i	-1.0
CC1(C)Cc2c(C#N)c(N3CCCC3)nc(-c3ccco3)c2CO1	x	-0.8
Cc1csc(SCc2nc3sc4c(c3c(=O)[nH]2)CCC4)n1	i	4.7
Cc1nnc(NC(=O)c2ccco2)s1	i	0.2
CCn1c(N)c(C(=O)NC2CCCCC2)sc1=S	x	2.0
c1ccc(Cc2nnc3n2CCCCC3)cc1	i	-1.0
CCc1cc2c(=O)n(C(C)C(=O)OC3CCCCC3)cnc2s1 (stereo unspecified)	i	0.8
COc1cccc(C2C(C#N)=C(N)Oc3cc(C)n(Cc4ccccn4)c(=O)c32)c1OC (stereo unspecified)	x	1.5
O=C(Nc1cccc(Cl)c1)N1CCN(Cc2ccccc2)CC1	i	0.4
CCn1c(SCC(=O)Nc2ccccc2F)nc2c(c1=O)SC(C)C2 (stereo unspecified)	i	-0.6
O=C(Nc1ccc(Br)cc1)N1CCCCCCC1	x	0.3
Cc1ccc(-c2nn(C)c(=O)c3ccccc23)cc1S(=O)(=O)N1CCOCC1	i	1.8
COc1ccc(C2C(C(=O)Nc3cccc(C)n3)CCC(=O)N2c2ccc(OC)cc2)cc1 (stereo unspecified)	x	1.2
COc1ccc(CCN2C(=O)C3C4C=CC(C4)C3C2=O)cc1OC (stereo unspecified)	i	-0.2
COc1ccccc1C(=O)NCCn1cc(SCC(=O)Nc2nnc(C)s2)c2ccccc21	x	1.8
O=C(Cn1cnc2c(cnn2-c2ccc(Cl)cc2)c1=O)NCCc1ccccc1	x	2.1
CCn1c(=S)ccc2ccc(OC)cc21	i	u
COc1ccccc1-c1ccc(C(=O)O)o1	x	0.0
Cc1cc2c(s1)c1cnn(CC(=O)NCCc3ccccc3)c(=O)c1n2C	i	-1.1
CCc1ccc(N2CCN(C(=O)c3ccc(OC)c(OC)c3)CC2)cc1	x	0.4
CCOC(=O)Cn1c(=NC(=O)CSC(C)=O)sc2cc(OC)ccc21	x	-0.7
CC(C)(C)NS(=O)(=O)c1cccc2nsnc12	x	0.1
Cc1cc(C)c(NC2=NCC(=O)N2C2CCCCC2)c(C)c1	i	-12.3
CC(=O)N1CCc2cc(S(=O)(=O)NCCC(=O)Nc3ccc4c(c3)OCCO4)ccc21	x	0.4
Cc1n[nH]c(C)c1CCc1nc2c3ccccc3nc(SCC(N)=O)n2n1	x	0.0
Cc1ccc(C2CC(c3ccccc3OC(F)F)Nc3ncnn32)cc1 (stereo unspecified)	x	0.3
CC(=O)c1cccc(NC(=O)NCc2ccco2)c1	i	-0.8
O=C1CNC(=O)/C1=C\N1CCCCC1	x	-0.6

Further entries follow:
SMILES	VCAM-1 up	Proteasome disasm
O=C(NCCN1CCOCC1)c1cc(-c2ccc(F)cc2)on1	x	-0.5
CCn1cc(C(=O)NCCCN2CCC(C)CC2)c(=O)c2cc(S(=O)(=O)N3CCCC3)ccc21	x	-0.5
COc1ccccc1NC(=O)C1=C(C)Nc2nc(-c3ccc(N(C)C)cc3)nn2C1c1ccncc1 (stereo unspecified)	x	-2.0
COC(=O)c1oc2ccc(Br)cc2c1NC(C)=O	i	0.4
CC(C)(C)OC(=O)N1CCCC1C(=O)N1CCCC1C(=O)N1CCCC1C(=O)O (stereo unspecified)	i	-0.5
O=C1c2ccccc2C(Nc2cccnc2)N1Cc1ccc2c(c1)OCO2 (stereo unspecified)	x	1.6
O=C(NCc1ccc2c(c1)OCO2)C1CC(=O)N(C2CCCC2)C1 (stereo unspecified)	x	0.7
CC(=O)N1CCCc2cc(S(=O)(=O)NC(C(=O)NC(C)c3ccccc3)C(C)C)ccc21 (stereo unspecified)	x	5.2
CCC(C)N1C(=O)C2C(C(=O)Nc3cccc(OC)c3)C3C=CC2(O3)C1C(=O)NC1CCCCC1C (stereo unspecified)	x	2.2
O=C(NCCCN1CCN(c2ccccc2)CC1)Nc1ccccc1C(F)(F)F	x	-1.9
Cc1c(NC(=O)CSc2nnc3sc4ccccc4n23)c(=O)n(-c2ccccc2)n1C	i	-0.2
COc1cccc2cc(C(=O)N3CCN(C45CC6CC(CC(C6)C4)C5)CC3)c(=O)oc12	i	1.0

Gathered by group: the entries above containing a tert-butyl group
SMILES	VCAM-1 up	Proteasome disasm
CC(C)(C)n1cnc2cc(NS(=O)(=O)c3ccc(Br)cc3)ccc21	i	-0.1
Cc1ccc(NC(=O)Cn2cnc3c(cnn3C(C)(C)C)c2=O)cc1	x	-0.2
Cc1cnc(C(=O)Nc2ccc(N3CCN(C(=O)OC(C)(C)C)CC3)cc2)cn1	i	-3.0
CC(C)(C)NS(=O)(=O)c1cccc2nsnc12	x	0.1
CC(C)(C)OC(=O)N1CCCC1C(=O)N1CCCC1C(=O)N1CCCC1C(=O)O (stereo unspecified)	i	-0.5

Next part
SMILES	VCAM-1 up	Proteasome disasm
c1ccc(-c2nnc3sc(-c4csc5c4CCCC5)nn23)cc1	x	3.5
COc1ccccc1OCC(=O)N1CCNC1=O	i	-0.7
CCOC(=O)N1CCC(NC(=O)c2ccc(CS(=O)(=O)c3ccc(OC)cc3)o2)CC1	x	0.2
COc1cc(-c2nc3n(n2)C(c2cccc(OC)c2OC)C2=C(CCCC2=O)N3)cc(OC)c1OC (stereo unspecified)	x	-1.4
CCOc1ccc(NC(=O)C2CSC(c3ccncc3)=N2)cc1 (stereo unspecified)	x	-1.3
COc1ccc(CN2C(=O)C(O)(CC(=O)c3c(C)n[nH]c3C)c3ccccc32)cc1OC (stereo unspecified)	i	0.2
COc1ccc(S(=O)(=O)N[C@@H](CC(C)C)C(=O)O)cc1	x	1.1
O=C(Cn1c(=O)oc2ccccc21)N1CCN(c2ccccc2)CC1	i	2.5
CN(CCC#N)S(=O)(=O)c1ccc2c(c1)c(=O)n(C)c(=O)n2C	x	-2.0
CC(=O)c1cccc(NC2c3ncccc3C(=O)N2Cc2ccco2)c1 (stereo unspecified)	x	1.4
